From PubChem BioAssay
NPYLR7 ag = mosquito NPYLR7 agonism | AID 1259423 | 270,000 tested, 0.15% active | activation, % at 10 µM | HEK293T NPYLR7/Galpha15, GCaMP6s calcium fluorescence; in the data active = activation above about 40%;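 also: 0% = vehicle and 100% = reference agonist at the receptor; some compounds past the cut are filed as inactive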
NPYLR7 ag max-min = further read-out of NPYLR7 ag, marked with its call; activation, %; measured here: Max-Min RFU normalised activation; some inactives read as strong as hits;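 span of the calcium signal over five minutes; 0% = vehicle and 100% = native peptide agonist; compound fluorescence can raise it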
The depositor's hits bear a star; & = joins results of further samples. This is a subset; the hit share may differ from the screen's.

For COC(=O)c1cc2n(n1)CCN(Cc1nc3ccccc3n1C(C)C)C2 the results were NPYLR7 ag -9.3 and NPYLR7 ag max-min -8.8.
Screening Cn1nc([N+](=O)[O-])nc1Oc1ccc2ccc(=O)oc2c1 returned NPYLR7 ag 4.1 and NPYLR7 ag max-min 2.8.
For Cc1cc(N2CCOCC2)ccc1NC(=O)c1ccc(C(F)(F)F)nc1 the results were NPYLR7 ag 8.7 and NPYLR7 ag max-min 6.7.
Screening Cc1ccc(CCC(=O)NNC(=O)CCc2ccc(C)o2)o1 returned NPYLR7 ag 1.4 and NPYLR7 ag max-min 7.4.
CCC(C)C(C(=O)OCC(=O)c1ccc2[nH]c(=O)[nH]c2c1)c1ccccc1 (centres undefined) was read as NPYLR7 ag 10.2 and NPYLR7 ag max-min 13.6.
`c1ccc(CNc2nc(-c3ccccc3)nc3ccccc23)cc1` gave NPYLR7 ag -9.5 and NPYLR7 ag max-min -5.1.
CCCCOc1ccc(C(=O)Nc2cc(C3CC3)nn2-c2nc(C)cc(=O)[nH]2)cc1 was read as NPYLR7 ag 3.0 and NPYLR7 ag max-min 1.7.
`COc1ccc(S(=O)(=O)N2CCCC2CNC(=O)C(=O)NCCCN(C)C)cc1` (centres undefined) gave NPYLR7 ag 3.8 and NPYLR7 ag max-min -0.4.
`CC1CCN(C(=O)c2cn(-c3cc(N4CCOCC4)ncn3)cn2)CC1` gave NPYLR7 ag -12.3 and NPYLR7 ag max-min -12.8.
`O=C(c1cn(CCc2ccccc2)nn1)N1CCC(c2ccccc2Cl)C1` (centres undefined) gave NPYLR7 ag 5.5 and NPYLR7 ag max-min 1.4.
CN(C)CCCN(C(=O)CCOc1ccccc1)c1nc2cc3c(cc2s1)OCO3 was read as NPYLR7 ag -2.0 and NPYLR7 ag max-min -3.7.
CC(C)COC(=O)c1ccc(N=CC(C#N)c2nc(-c3cccs3)cs2)cc1 (centres undefined) was read as NPYLR7 ag 7.1 and NPYLR7 ag max-min 5.9.
Screening COc1ccc(OC)c(Nc2nc(-c3cc4cccc(OC)c4oc3=O)cs2)c1 returned NPYLR7 ag -7.3 and NPYLR7 ag max-min -12.3.
For CCN(CC)C(=O)Oc1ccc2c(ccn2Cc2ccc(I)cc2)c1-c1cc(Cl)cc(Cl)c1 the results were NPYLR7 ag 15.4 and NPYLR7 ag max-min -3.8.
For CC(C)(C)NC(=O)NC1CCN(c2ccccc2C(=O)NCc2cccc(C(F)(F)F)c2)CC1 the results were NPYLR7 ag -0.8 and NPYLR7 ag max-min 7.1.
For COc1ccc(N(CC(O)CNCCCC(=O)O)S(=O)(=O)c2ccc(C)cc2)cc1 (centres undefined) the results were NPYLR7 ag 14.3 and NPYLR7 ag max-min 3.2.
`Cc1ccccc1C1c2ccsc2CCN1C(=O)CN(CC1CCCO1)C(=O)Cc1ccc(F)cc1` (centres undefined) gave NPYLR7 ag -3.3 and NPYLR7 ag max-min -7.1.
CCOC(=O)c1c(P(=O)(N2CCOCC2)N2CCOCC2)noc1N was read as NPYLR7 ag 6.7 and NPYLR7 ag max-min 4.1.
`Cc1ccc(C)c(-n2nc(-c3ccccc3Cl)cc2C(=O)O)c1` gave NPYLR7 ag -16.4 and NPYLR7 ag max-min -8.8.
Screening CC(C)CCNC(=O)CNC(=O)c1ccc(N2CCCC2=O)cc1 returned NPYLR7 ag 2.0 and NPYLR7 ag max-min 8.4.
For Fc1ccc(C2=Nc3nnnn3C(c3ccc(Cl)c(Cl)c3)C2)cc1 (centres undefined) the results were NPYLR7 ag -5.2 and NPYLR7 ag max-min -8.0.
For CCN(CC)c1ncccc1CNC(=O)c1cnc(C)nc1C the results were NPYLR7 ag 1.2 and NPYLR7 ag max-min -1.7.
Screening Cc1cc(C)n(CCN(C(=O)C2CC2)c2nc3c(C)cc(Cl)cc3s2)n1 returned NPYLR7 ag -14.3 and NPYLR7 ag max-min -17.2.
Screening COc1ccc(-c2cnc(-c3ccc(CNC(=O)c4cccc(OC)c4)cc3)[nH]2)cc1 returned NPYLR7 ag -2.3 and NPYLR7 ag max-min -2.8.
CC(OC(=O)CN(C)c1ncccn1)C(=O)NC(C)(C#N)C(C)C (centres undefined) was read as NPYLR7 ag 5.2 and NPYLR7 ag max-min 1.2.
`COc1ccccc1-n1ncc2c(C(C)C)nnc(SCC(=O)Nc3ccc4c(c3)OCO4)c21` gave NPYLR7 ag -9.3 and NPYLR7 ag max-min -13.3.
Cc1c(Cl)cccc1NC(=O)CSc1ncnc2c1oc1ccccc12 was read as NPYLR7 ag 4.0 and NPYLR7 ag max-min 0.2.
For CC(C)(C)c1ccc(CC(=O)N2CCC2(C)C(=O)N2CCCCC2)cc1 (centres undefined) the results were NPYLR7 ag 2.0 and NPYLR7 ag max-min -1.2.
COc1ccc(CN(CCc2c[nH]c3ccccc23)C(=O)CN(C(=O)c2cccs2)C2CC2)cc1 was read as NPYLR7 ag 17.5 and NPYLR7 ag max-min 18.7.
`CCc1nc2ccc(C(=O)NC3CCN(C)CC3)cn2c1N(CC)CC(=O)N(C)C` gave NPYLR7 ag 19.1 and NPYLR7 ag max-min 18.8.
`C(=NC1=NN(c2ccccc2)CC1)N1CCCCCC1` gave NPYLR7 ag 14.5 and NPYLR7 ag max-min 9.6.
Screening COc1ccccc1C(=O)C1CCCN(Cc2cccc(OCCO)c2)C1 (centres undefined) returned NPYLR7 ag 26.0 and NPYLR7 ag max-min 9.4.
O=C(c1cc(COc2ccccc2)[nH]n1)N1CCN(C(=O)c2ccco2)CC1 was read as NPYLR7 ag 16.1 and NPYLR7 ag max-min 0.6.
`Cc1ccc(C(=O)N(Cc2ccc(C3CC3C)o2)C2CC2)cc1S(C)(=O)=O` (centres undefined) gave NPYLR7 ag 1.2 and NPYLR7 ag max-min 0.3.
Screening Cc1ccc(CN(Cc2cccn2Cc2cccc(C(F)(F)F)c2)C2CC2)cc1 returned NPYLR7 ag -1.4 and NPYLR7 ag max-min 5.2.
Screening COc1ccc(C(=O)O)cc1S(=O)(=O)N1CCCCC1C (centres undefined) returned NPYLR7 ag 6.0 and NPYLR7 ag max-min 2.5.
O=C(COc1ccccc1)N1CCC(c2nc(-c3ccncc3)no2)CC1 was read as NPYLR7 ag 0.5 and NPYLR7 ag max-min -2.3.
O=C(Nc1cc(C(=O)N2CCC[C@H]2CO)c2c(c1)ncn2C1CCCC1)c1ccccc1 was read as NPYLR7 ag 1.1 and NPYLR7 ag max-min 1.5.
Screening COc1ccccc1-c1cc(C(=O)NCCN2CCOCC2)n2nc(-c3ccc(Cl)cc3)cc2n1 returned NPYLR7 ag 20.7&9.9 and NPYLR7 ag max-min 23.6&5.4.
`Cc1cn2c3c(=O)n(C)c(=O)n(C)c3nc2n1-c1cccc(O)c1` gave NPYLR7 ag -17.0 and NPYLR7 ag max-min -18.0.
COc1ccc(SCc2csc(Cc3ccc(C)cc3)n2)cc1 was read as NPYLR7 ag 6.0 and NPYLR7 ag max-min 5.4.
Cc1ccccc1C(NC(=O)Cc1nnc(N)s1)c1cccs1 (centres undefined) was read as NPYLR7 ag 6.7 and NPYLR7 ag max-min 3.8.
For Cc1cc(C)c2c3c(sc2n1)C1(CCOC1C)C(C#N)C(=N)O3 (centres undefined) the results were NPYLR7 ag 1.6 and NPYLR7 ag max-min 2.5.
For O=C1NC(=O)c2ccc(Cl)c3cccc1c23 the results were NPYLR7 ag 0.0 and NPYLR7 ag max-min -5.1.
Cc1nc2c(OCc3ccc(Cl)cc3)cccn2c1N(C)CC1CC1 was read as NPYLR7 ag 12.3 and NPYLR7 ag max-min -0.3.
`O=C(NCCc1ccccc1)C1CCCCC1C(=O)N1CCc2c([nH]c3ccccc23)C1` (centres undefined) gave NPYLR7 ag -5.7 and NPYLR7 ag max-min -10.6.
Cc1cc(=O)[nH]c(-n2ncc(C(=O)Nc3nc(C)cs3)c2C)n1 was read as NPYLR7 ag -1.1 and NPYLR7 ag max-min -1.4.
Screening CN(C)S(=O)(=O)c1ccc(Nc2nc3ccccc3n3cnnc23)cc1 returned NPYLR7 ag 2.0 and NPYLR7 ag max-min 0.9.
Screening C[C@H]1C(=O)N2[C@@H]1C=CC(C(=O)OCC[Si](C)(C)C)=CN2C(=O)c1ccccc1 returned NPYLR7 ag 1.0 and NPYLR7 ag max-min -1.0.
Screening C=CCc1cc(OC)ccc1OCC(=O)Nc1ccc(C(N)=O)cc1 returned NPYLR7 ag 5.1 and NPYLR7 ag max-min -0.6.
`COc1ccc(NC(=O)c2ccc([N+](=O)[O-])cc2)c2ccccc12` gave NPYLR7 ag -1.1 and NPYLR7 ag max-min -2.9.
`COc1ccc(CC(=O)Nc2ccc(OC3CCN(C(=O)OC(C)(C)C)C3)cc2)cc1OC` (centres undefined) gave NPYLR7 ag -8.5 and NPYLR7 ag max-min -16.5.
For Cc1cc(C=NN2CCCCC2)c(C)n1-c1ccc(I)cc1 the results were NPYLR7 ag 3.7 and NPYLR7 ag max-min 3.5.
`Cc1ccccc1-c1noc(-c2ccc([N+](=O)[O-])cc2)n1` gave NPYLR7 ag -26.3 and NPYLR7 ag max-min -25.4.
Screening COc1cc(C(=O)N2CCN(C(=O)N3CCCCC3)CC2)cc(Cl)c1OCC(C)C returned NPYLR7 ag 4.7 and NPYLR7 ag max-min 3.1.
`CCC(C(=O)N1CC=CC1)n1cc(C(C)=O)c2ccccc21` (centres undefined) gave NPYLR7 ag -5.1 and NPYLR7 ag max-min -12.9.
`CN1C(=O)NC(c2cccc([N+](=O)[O-])c2)C2=C1CN(CCc1ccccc1)C2=O` (centres undefined) gave NPYLR7 ag 14.7 and NPYLR7 ag max-min 20.8.
Screening CC(C#N)CNC(N)=NCc1ccccc1 (centres undefined) returned NPYLR7 ag -0.2 and NPYLR7 ag max-min 4.9.
Screening COc1ccc(OC)c(C2c3[nH]c4ccccc4c3CCN2CCCC#N)c1 (centres undefined) returned NPYLR7 ag -4.2 and NPYLR7 ag max-min -9.0.
O=S(=O)(N=C(c1ccccc1)N1CCN(c2cccc(C(F)(F)F)c2)CC1)c1ccccc1 was read as NPYLR7 ag 1.0 and NPYLR7 ag max-min -4.1.
For CCC(C)C(NS(=O)(=O)c1cccc2ccccc12)C(=O)Nc1nnc(-c2ccc3c(c2)OCO3)s1 (centres undefined) the results were NPYLR7 ag 12.7 and NPYLR7 ag max-min 21.8.
Screening Cc1ccc(CN(CCC(C)C)CC(O)COCC(C)C)s1 (centres undefined) returned NPYLR7 ag -1.3 and NPYLR7 ag max-min 4.7.
For CCc1nc2c(OC)cccn2c1N(C)C(=O)c1cccc(OC)c1 the results were NPYLR7 ag 19.2 and NPYLR7 ag max-min 14.5.
Screening COc1ccc(C(=O)N2CCOC(CCc3ccccc3)C2)cc1F (centres undefined) returned NPYLR7 ag 4.7 and NPYLR7 ag max-min 2.7.
C=CCNC(=O)CSc1nnc(-c2cccs2)o1 was read as NPYLR7 ag 2.8 and NPYLR7 ag max-min 8.1.
Screening O=C(c1cc(=O)[nH]c2ccccc12)N1CCCC(c2nnc3n2CCCCC3)C1 (centres undefined) returned NPYLR7 ag 5.1 and NPYLR7 ag max-min 5.4.
Screening CCN1CCN(C2=CC(=[N+]3CCCC3)CC(C)(C)C2)CC1 returned NPYLR7 ag -5.4 and NPYLR7 ag max-min -10.9.
Screening O=C(COc1ccc(Cl)cc1)NCCn1nc(-c2cccs2)ccc1=O returned NPYLR7 ag 0.6 and NPYLR7 ag max-min -2.1.
Screening Cc1ccc(-c2nnc(CCC(=O)N(C)C3CCN(C)CC3)c(=O)[nH]2)cc1 returned NPYLR7 ag 6.8 and NPYLR7 ag max-min 3.6.
`COCC(=O)N1CCCN(Cc2cccc(OC)c2O)CC1` gave NPYLR7 ag 11.7 and NPYLR7 ag max-min 9.5.
Screening C/C=C/COC(=O)C1=C(C)NC(=O)NC1c1cccc(OC)c1 (centres undefined) returned NPYLR7 ag -1.9 and NPYLR7 ag max-min -5.9.
Screening CCC(CC)C(=O)Nc1nnc(SCC(=O)N2CCc3ccccc32)s1 returned NPYLR7 ag 1.1 and NPYLR7 ag max-min -2.8.
`O=S(=O)(c1cccs1)N(C1CC1)C1CCc2ccccc21` (centres undefined) gave NPYLR7 ag 5.7 and NPYLR7 ag max-min 4.8.
COc1ccccc1N1CCN(c2ccc(NC(=O)c3ccc(Cl)cc3Cl)cc2C(=O)NCC(C)C)CC1 was read as NPYLR7 ag -0.7 and NPYLR7 ag max-min 0.4.
For CN(Cc1c(F)cccc1Cl)C(=O)CSc1nnc(Cn2ccc(=O)[nH]c2=O)o1 the results were NPYLR7 ag -3.9 and NPYLR7 ag max-min 4.6.
`CC1CCc2sc(NC(=O)c3cccc4ccccc34)c(C(N)=O)c2C1` (centres undefined) gave NPYLR7 ag 6.9 and NPYLR7 ag max-min 4.6.
Screening Cc1nc2c(NCC3(COc4ccccc4)CC3)ncnc2o1 returned NPYLR7 ag -8.2 and NPYLR7 ag max-min -12.0.
Screening CC(Nc1nccnc1C#N)c1ccc(-n2cncn2)cc1 (centres undefined) returned NPYLR7 ag -1.7 and NPYLR7 ag max-min -4.7.
For N#CNC1=NC2CCCCC2N1 (centres undefined) the results were NPYLR7 ag 2.5 and NPYLR7 ag max-min 29.8.

Of the compounds above, seven have a cyano group:
CC(C)COC(=O)c1ccc(N=CC(C#N)c2nc(-c3cccs3)cs2)cc1 (centres undefined) was read as NPYLR7 ag 7.1 and NPYLR7 ag max-min 5.9.
CC(OC(=O)CN(C)c1ncccn1)C(=O)NC(C)(C#N)C(C)C (centres undefined) was read as NPYLR7 ag 5.2 and NPYLR7 ag max-min 1.2.
For Cc1cc(C)c2c3c(sc2n1)C1(CCOC1C)C(C#N)C(=N)O3 (centres undefined) the results were NPYLR7 ag 1.6 and NPYLR7 ag max-min 2.5.
Screening CC(C#N)CNC(N)=NCc1ccccc1 (centres undefined) returned NPYLR7 ag -0.2 and NPYLR7 ag max-min 4.9.
Screening COc1ccc(OC)c(C2c3[nH]c4ccccc4c3CCN2CCCC#N)c1 (centres undefined) returned NPYLR7 ag -4.2 and NPYLR7 ag max-min -9.0.
Screening CC(Nc1nccnc1C#N)c1ccc(-n2cncn2)cc1 (centres undefined) returned NPYLR7 ag -1.7 and NPYLR7 ag max-min -4.7.
For N#CNC1=NC2CCCCC2N1 (centres undefined) the results were NPYLR7 ag 2.5 and NPYLR7 ag max-min 29.8.
